RGS16-Gao: regulators of human RGS16-Galphao interaction | bead-based flow cytometry RGS16-Galphao binding, fluorescence; actives lie on both sides | binding response (% of control), % at 10 µM | 0.38% of 220,000 active;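 active means below 25% or above 175%, edge rows of some plates excepted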;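 further: Galphao activated by GDP with aluminum fluoride before binding; 100% = wells without compound and 0% = beads without RGS; some results beyond the cut were filed as inactive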
HSV replic up: increases HSV replication in cells. HSV replication augmentation in cells, fold increase. maximum fold increase. 0.005% of 220,000 active. AID 1956;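 active means peak rise of 1.5-fold or more in the series; tested in PC3 cells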;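 further: first round at 10 µM; read as green reporter fluorescence; hits show the peak of a series up to 25 µM; 1 = signal of infected wells without compound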
PKD1 inh: inhibitors of human PKD1 kinase. 0.056% of 200,000 active. inhibition, %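 (about 10 µM by stock and volumes)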. Q15139. PKD1 kinase fluorescence polarization assay;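 active means inhibition of 50% or more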;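 further: controls were vehicle for no effect and a reference inhibitor for full effect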
Target sequence (Q15139 whole entry, looked up): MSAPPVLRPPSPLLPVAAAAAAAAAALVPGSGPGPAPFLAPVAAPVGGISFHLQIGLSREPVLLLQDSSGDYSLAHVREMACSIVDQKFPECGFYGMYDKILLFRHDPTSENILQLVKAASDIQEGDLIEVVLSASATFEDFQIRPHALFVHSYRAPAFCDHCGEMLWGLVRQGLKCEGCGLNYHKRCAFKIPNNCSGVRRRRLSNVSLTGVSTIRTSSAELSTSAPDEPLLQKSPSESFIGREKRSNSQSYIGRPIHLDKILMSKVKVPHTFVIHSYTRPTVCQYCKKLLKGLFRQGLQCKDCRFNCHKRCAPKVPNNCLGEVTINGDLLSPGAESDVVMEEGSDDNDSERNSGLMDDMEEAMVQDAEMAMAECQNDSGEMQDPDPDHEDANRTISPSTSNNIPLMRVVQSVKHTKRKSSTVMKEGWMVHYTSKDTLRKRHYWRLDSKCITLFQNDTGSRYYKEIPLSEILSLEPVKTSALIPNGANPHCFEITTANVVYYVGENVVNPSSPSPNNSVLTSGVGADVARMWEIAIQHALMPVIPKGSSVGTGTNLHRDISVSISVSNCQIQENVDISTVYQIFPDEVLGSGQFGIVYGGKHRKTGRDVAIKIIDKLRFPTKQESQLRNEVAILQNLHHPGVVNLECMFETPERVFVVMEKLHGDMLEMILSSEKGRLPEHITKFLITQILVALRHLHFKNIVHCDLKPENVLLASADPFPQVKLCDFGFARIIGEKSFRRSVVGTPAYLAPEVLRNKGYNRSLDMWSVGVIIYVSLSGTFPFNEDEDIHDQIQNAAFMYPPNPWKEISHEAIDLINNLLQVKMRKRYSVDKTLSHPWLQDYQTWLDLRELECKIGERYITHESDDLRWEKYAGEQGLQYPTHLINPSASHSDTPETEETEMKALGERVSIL
INS promoter inh: TRM-6 insulin promoter activity inhibition; TRM-6 cells (human fetal islet line), insulin promoter-eGFP reporter, imaging; reporter expression induced with tamoxifen; inhibition, % at 2 µM; 0.9% of 130,000 active; AID 1273;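 active means inhibition above the mean plus 3 SD, with well images judged a real hit on visual review, cut at about 60% in these data, passing the limit was not always enough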
GALR2 ag: GALR2 (human) receptor agonism | O43603 | GALR2-expressing cells, agonist activation read-out | activation, %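 (tested at 5 µM)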 | 0.48% of 140,000 active;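 active means above mean plus 3 SD of all compounds, about 5% in these data, not always enough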;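 further: 0% = vehicle buffer wells and 100% = reference agonist at full effect; tested in CHO reporter cells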
INS promoter inh cell count: second read-out of INS promoter inh, no call of its own (marks repeat the call); normalized cell count, %; measured here: cell count, toxicity; reference of the scale not given here;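 cells exposed to compound for 48 h; stained nuclei by imaging scaled within each plate; lower means fewer cells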
HSV replic up primary fold: recorded beside HSV replic up, whose call it bears; fold increase; compound at 10 µM; measured here: primary screen fold increase 10 uM; tested in PC3 cells;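 GFP signal in the first replicate; 1 = infected wells without compound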
* = called active by the depositor; i = inactive; . = no result given. Compounds were not picked by outcome. About 1.3% of those tested had a hit in this group.

SMILES	RGS16-Gao	HSV replic up	HSV replic up primary fold	PKD1 inh	INS promoter inh	INS promoter inh cell count	GALR2 ag
Fc1c(F)c(F)c(CSc2nc3ccccc3[nH]2)c(F)c1F	107	i	0.77	-13	74	129	-1.1
CCn1c(SCC(=O)N2CCN(c3ccccc3)CC2)nnc1-c1ccncc1	95	i	0.88	-6	-6	13	-2.1
CN(C)c1ccc(/C=N/NC(=O)CN2CCN(c3ccc(F)cc3)CC2)cc1	109	i	0.92	-14	-70	135	-0.6
O=C(c1ccccc1NS(=O)(=O)c1cccc([N+](=O)[O-])c1)N1CCOCC1	103	i	1	5	-117	123	-1.4
Cc1ccc(N2CC(C(=O)Nc3nnc(SCC(=O)Nc4cc(C)on4)s3)CC2=O)cc1 (centres undefined)	106	i	1	-15	36	53	-0.3
COc1ccccc1/C=C/C=N/N1CCN(Cc2ccc(Cl)cc2)CC1	104	i	0.91	-2	.	.	-3.0
CCCCc1c(O)nc(SCC(=O)O)[nH]c1=O	105	i	0.99	0	-7	125	.
CCCCCC1CC(=O)N(Cc2ccccc2)C(=O)N1 (centres undefined)	96	i	0.97	-5	.	.	-0.7
CCCC12CN3CC(C)(CN(C1)C3c1ccco1)C2=O (centres undefined)	100	i	0.87	2	-6	181	.
CCOC(=O)c1sc(NC(=O)Cc2ccc(F)cc2)nc1C	107	i	0.75	7	50	102	.
Cc1ccc(N2CN(CCc3ccccc3)CNC2=S)cc1	122	i	0.84	.	.	.	.
O=C(N/N=C/c1cccs1)C(O)c1ccccc1 (centres undefined)	106	i	1	.	.	.	.
[O-]/[N+](=C\c1cccc(Br)c1)c1ccccc1	95	i	1.1	-9	41	131	.
CC(C)(C)c1ccc(NC(=O)COC(=O)CCN2C(=O)c3cccc([N+](=O)[O-])c3C2=O)cc1	99	i	0.99	-13	9	113	-2.6
Cc1ccc(C(=O)COC(=O)c2cnccn2)cc1	121	i	0.93	-6	.	.	-2.4
CCOC(=O)c1cnc2ccc(Cl)cc2c1NCCN(C)C	106	i	1.1	9	-23	83	-0.2
CCCCNC(=O)C(c1ccc(OCC(=O)OC)c(C(=O)OC)c1)N(CCc1ccccc1)C(=O)CCCCCN1C(=O)NC(c2ccc(-c3ccccc3)cc2)C(C(=O)OCc2ccccc2)=C1C (centres undefined)	97	i	0.75	.	.	.	.
O=C(Nc1ccc(Cl)cc1)C(c1ccccc1)N(CCO)CCO (centres undefined)	101	i	0.79	2	25	116	-1.9
COC(=O)c1ccc(Cl)c(NC(=O)CN2CCN(Cc3ccccc3)CC2)c1	116	i	0.97	2	-59	44	-2.1
O=C(Oc1ccccc1)c1ccccc1OS(=O)(=O)c1ccccc1	99	i	0.99	1	14	70	-1.3
COc1ccccc1NS(=O)(=O)c1cccc(C(=O)N/N=C/c2ccc(N3CCOCC3)cc2)c1	58	i	1	-2	25	65	-0.3
Cc1cc(NC(=O)C2(c3ccccc3)CCCC2)no1	160	i	0.93	-9	-11	132	-1.8
CC(C)CN(C(=O)c1ccco1)c1nc2ccccc2s1	100	i	1.1	0	.	.	.
Cc1c(NC(=S)NC(=O)C2CCCCC2)c(=O)n(-c2ccccc2)n1C	13*	i	0.87	-7	-11	149	-1.6
CCC(C)C(NC(=O)OC(C)(C)C)C(=O)NC(C(=O)N1CCCC1C(N)=O)C(C)CC (centres undefined)	110	i	0.91	-19	.	.	-1.9
CCOC(=O)c1c(C)nc2c(c1-c1ccccc1)C(=O)CC(C)(C)C2	102	i	0.97	-5	-7	118	-3.4
O=C(COc1ccc([N+](=O)[O-])cc1)Nc1nnc(-c2cccnc2)s1	97	i	0.92	.	.	.	.
CCOC(=O)c1cnc(SCC(=O)Nc2cc(C(F)(F)F)ccc2N2CCOCC2)nc1N	96	i	0.98	-3	38	74	-4.2
COc1ccc(CN(C)C(=S)Nc2ccc(Cl)cc2)cc1	73	i	0.89	-4	-36	59	.
COc1ccccc1C(=O)N/C(=C\c1ccc(Br)cc1)C(=O)NCC(=O)O	102	i	0.92	-5	8	148	0.2
Cc1cc(-c2nnc(CCC(=O)NC(C)c3ccccc3Cl)o2)no1 (centres undefined)	109	i	1.1	-4	-100	83	.
CC(C)(C)c1ccc(C(=O)c2c[nH]c(C(=O)NCCCn3ccnc3)c2)cc1	97	i	0.66	-3	-47	61	-1.0
CCCCOC(=O)C1=C(C)Nc2ncnn2C1c1ccc(OCC)c(OC)c1 (centres undefined)	99	i	0.96	-2	.	.	-1.5
O=C(CSc1ncccn1)N1CCN(C(=O)CSc2ncccn2)CC1	95	i	1	-12	-12	133	-2.5
N#CC1=C(N)Oc2n[nH]c(CSc3ccccc3)c2C12C(=O)Nc1ccccc12 (centres undefined)	94	i	0.76	-3	35	168	-2.1
CN1CCN(C(=O)c2ccc3c(=O)n(Cc4ccc(Cl)cc4)c(=S)[nH]c3c2)CC1	108	i	0.84	1	.	.	-1.9
COc1ccccc1CNC(=O)CCN1C(=O)COc2ccccc21	102	i	1.2	1	-92	149	-2.3
Cc1nn(C)cc1C(=O)/C=C/c1ccc([N+](=O)[O-])cc1	109	i	0.77	3	.	.	.
O=C(CSc1nc(O)cc(=O)[nH]1)N1c2ccccc2CCc2ccccc21	99	i	0.99	.	.	.	.
COc1ccc(-c2nnc(-c3cc4ccccc4oc3=O)o2)cc1	36	i	0.97	-2	17	110	-0.6
C/C(=N\NC(=O)c1cc(C)nc2ccccc12)c1ccc([N+](=O)[O-])cc1	106	i	0.89	7	.	.	.
N#C/C(=C/c1ccc2c(c1)OCO2)C(=O)NCCc1c[nH]c2ccccc12	268	i	0.95	4	9	168	0.0
O=C(O)CCCCCNc1nc(=S)[nH]c2ccccc12	108	i	0.85	-5	49	101	-2.1
Cc1cc2c(=O)n(CC(=O)N3CCN(c4ccccc4)CC3)cnc2s1	98	i	0.88	-9	-3	147	-0.4
COc1ccc(-n2ncc(Cl)c(Cl)c2=O)cc1	98	i	0.63	0	.	.	.

Molecules above containing a cyano group (2):
SMILES	RGS16-Gao	HSV replic up	HSV replic up primary fold	PKD1 inh	INS promoter inh	INS promoter inh cell count	GALR2 ag
N#CC1=C(N)Oc2n[nH]c(CSc3ccccc3)c2C12C(=O)Nc1ccccc12 (centres undefined)	94	i	0.76	-3	35	168	-2.1
N#C/C(=C/c1ccc2c(c1)OCO2)C(=O)NCCc1c[nH]c2ccccc12	268	i	0.95	4	9	168	0.0

Entries of single compounds, looked up by structure:
`Fc1c(F)c(F)c(CSc2nc3ccccc3[nH]2)c(F)c1F` is listed with RGS16-Gao: 107; HSV replic up: i; HSV replic up primary fold: 0.77; PKD1 inh: -13; INS promoter inh: 74; INS promoter inh cell count: 129; GALR2 ag: -1.1
`Cc1ccc(C(=O)COC(=O)c2cnccn2)cc1` is listed with RGS16-Gao: 121; HSV replic up: i; HSV replic up primary fold: 0.93; PKD1 inh: -6; INS promoter inh: .; INS promoter inh cell count: .; GALR2 ag: -2.4

Additional structures follow.
SMILES	RGS16-Gao	HSV replic up	HSV replic up primary fold	PKD1 inh	INS promoter inh	INS promoter inh cell count	GALR2 ag
Cc1c(CN2CCC(CO)(Cc3ccccc3)CC2)c2ccccc2n1C	104	i	0.96	3	0	75	.
Oc1ccc(Br)cc1/C=N/Nc1ncc(-c2ccccc2)cn1	98	i	0.99	-7	.	.	.
CN(C)CCCNC(=O)c1ccc(-c2nc(-c3ccc(Cl)cc3)cs2)cc1	107	i	0.89	1	-64	194	-1.3
COCc1cc(C)nc2sc(C(=O)NN)c(-n3cccc3)c12	108	i	0.9	2	42	120	.
Cc1[nH]nc(Nc2ccc(O)cc2)c1[N+](=O)[O-]	103	i	0.81	9	-28	115	.
FC(F)(F)c1ccnc(N2CCN(Cc3cnc(-c4ccccc4)[nH]3)CC2)c1	97	i	1.1	.	.	.	.
N#CCOc1ccc(C2=NO[C@@H]3[C@@H]4C[C@@H]([C@H]5C(=O)N(c6ccc7c(c6)OCO7)C(=O)[C@@H]45)[C@H]23)cc1	105	i	1.1	0	-58	140	-1.8
CC(NC(=O)c1cc2ccccc2o1)c1cccs1 (centres undefined)	97	i	1	2	-23	115	-1.4
NNC(=S)Nc1cc(S(=O)(=O)N2CCOCC2)ccc1N1CCOCC1	95	i	0.88	-3	-26	136	.
O=C(Nc1ccccc1)c1ccc[nH]1	91	i	1.1	1	8	62	-2.1
Cc1cc(C)c2nc(-c3cccnc3)cc(C(=O)NC(C)c3cnn(C)c3C)c2c1 (centres undefined)	96	i	0.93	3	.	.	.
Cc1ccccc1-n1nc(C)c2cc(C(=O)N3CCN(S(=O)(=O)c4ccc(F)cc4)CC3)sc21	97	i	1.1	2	.	.	-2.1
CCOC(=O)N1CCC(N2CC34C=CC(O3)C(C(=O)Nc3ccc(C)cc3)C4C2=O)CC1 (centres undefined)	96	i	1.1	2	.	.	0.6
Cn1cc(-c2cc(C(=O)O)on2)cn1	112	i	0.9	.	.	.	.
Cc1onc(-c2ccccc2)c1-c1csc(N/N=C/c2ccccc2)n1	104	i	0.64	.	.	.	.
O=C(Nc1ccc(F)cc1)N1CCN(c2ncccn2)CC1	103	i	1	0	.	.	.
CCOC(=O)Cc1csc(NC(=O)C(CC(C)C)NC(=O)C2CCCCC2)n1 (centres undefined)	102	i	0.94	-8	0	61	.
COc1ccccc1NC(=O)c1cccs1	99	i	0.9	-5	.	.	-1.6
COc1ccc(NS(=O)(=O)c2ccc(N3CCCC3)c(NC(=S)Nc3cccc(C)c3C)c2)cc1	50	i	0.96	-3	-22	131	1.1
COc1ccc(-n2c(N)c(C(=O)NCC3CCCO3)c3nc4ccccc4nc32)c(OC)c1 (centres undefined)	104	i	0.79	-14	.	.	7.0
Cc1ccc(C(=O)Nn2c(O)c(C=C3N=c4ccccc4=N3)sc2=S)cc1	81	i	0.86	19	0	108	-2.3
Cc1ccnc(-n2c(CCN3C(=O)c4ccccc4C3=O)nc3ccccc3c2=O)c1	95	i	1	-4	-108	98	-3.2
CCCCN(Cc1ccco1)C(=O)Cn1ncc2c(=O)oc3ccc(C)cc3c21	102	i	1.1	-3	.	.	-0.4
CNS(=O)(=O)c1ccc(Cl)nc1	57	i	0.97	7	-8	82	-1.0
CC(C)CNS(=O)(=O)c1ccc(S(=O)(=O)N2CCC3(CC2)OCCO3)cc1	105	i	0.98	7	-50	122	0.0
N#Cc1c(-c2ccccc2Cl)noc1/C=C/Nc1ccc(C(=O)O)cc1	87	i	1.1	-6	-107	36	.

Quoted from the entries so far, seven compounds:
SMILES	RGS16-Gao	HSV replic up	HSV replic up primary fold	PKD1 inh	INS promoter inh	INS promoter inh cell count	GALR2 ag
O=C(Nc1ccc(F)cc1)N1CCN(c2ncccn2)CC1	103	i	1	0	.	.	.
CCOC(=O)Cc1csc(NC(=O)C(CC(C)C)NC(=O)C2CCCCC2)n1 (centres undefined)	102	i	0.94	-8	0	61	.
COc1ccccc1NC(=O)c1cccs1	99	i	0.9	-5	.	.	-1.6
COc1ccc(NS(=O)(=O)c2ccc(N3CCCC3)c(NC(=S)Nc3cccc(C)c3C)c2)cc1	50	i	0.96	-3	-22	131	1.1
COc1ccc(-n2c(N)c(C(=O)NCC3CCCO3)c3nc4ccccc4nc32)c(OC)c1 (centres undefined)	104	i	0.79	-14	.	.	7.0
Cc1ccc(C(=O)Nn2c(O)c(C=C3N=c4ccccc4=N3)sc2=S)cc1	81	i	0.86	19	0	108	-2.3
Cc1ccnc(-n2c(CCN3C(=O)c4ccccc4C3=O)nc3ccccc3c2=O)c1	95	i	1	-4	-108	98	-3.2
